Screening data deposited in PubChem by several laboratories.
Mtb H37Rv: M. tuberculosis H37Rv growth inhibitors, H37Rv strain (AID 1626). M. tuberculosis H37Rv growth inhibition; higher % means a stronger effect. one-dose inhibition, % at 10 µM; IC50 in µM for titrated hits. 220,000 tested, 0.95% active;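 active means confirmed in a dose series; inconclusive means inhibition above 80% but not taken into the dose series; inactive means below 80% or under 30% at every dose of the series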;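 further: bacteria incubated seven days before Alamar blue readout; 0% = bacteria only wells and 100% = bacteria with antibiotic wells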
YopH PTP inh: YopH tyrosine phosphatase inhibitors, primary screen, biochemical, fluorescence Ex485/Em525. 140,000 tested, 0.16% active. inhibition, %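 (about 10 µM by stock and volumes)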. AID 898, 2007;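 active means inhibition of 50% or more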;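 further: controls were vehicle for no effect and minimum signal wells for full effect; inactives centre near -20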
Mtb betalactam: beta-lactam sensitization of Mtb H37Rv, H37Rv; M. tuberculosis H37Rv growth with meropenem, percent inhibition; hits of this screen are not shown here; inhibition, % at 25 µM; 330,000 tested, 0.27% active;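 active means about 74% or more and at least 40 points above the plate without the antibiotic, then above 30% in a dose series; inconclusive means first-round hits that could not be retested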;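 further: growth measured after seven days incubation then overnight dye step; 0% = bacteria only wells and 100% = bacteria with antibiotic; twin plates without the antibiotic show which effects depend on it; some results filed as inactive read as strong as hits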
RecA intein inh: Mtb RecA intein splicing inhibitors, primary screen, biochemical, fluorescence, HTS; Protein RecA (Mycobacterium tuberculosis (strain ATCC 25618 / H37Rv)), P9WHJ3; cell-free RecA intein splicing; 290,000 tested, 0.75% active; inhibition, %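 (about 9 µM by stock and volumes)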; AID 2221, 2009; in the data active means inhibition above about 30%; inconclusive means no clear call, values can overlap the other calls;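 further: 0% = vehicle wells and 100% = reference inhibitor control wells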
Target sequence (P9WHJ3 whole entry, looked up): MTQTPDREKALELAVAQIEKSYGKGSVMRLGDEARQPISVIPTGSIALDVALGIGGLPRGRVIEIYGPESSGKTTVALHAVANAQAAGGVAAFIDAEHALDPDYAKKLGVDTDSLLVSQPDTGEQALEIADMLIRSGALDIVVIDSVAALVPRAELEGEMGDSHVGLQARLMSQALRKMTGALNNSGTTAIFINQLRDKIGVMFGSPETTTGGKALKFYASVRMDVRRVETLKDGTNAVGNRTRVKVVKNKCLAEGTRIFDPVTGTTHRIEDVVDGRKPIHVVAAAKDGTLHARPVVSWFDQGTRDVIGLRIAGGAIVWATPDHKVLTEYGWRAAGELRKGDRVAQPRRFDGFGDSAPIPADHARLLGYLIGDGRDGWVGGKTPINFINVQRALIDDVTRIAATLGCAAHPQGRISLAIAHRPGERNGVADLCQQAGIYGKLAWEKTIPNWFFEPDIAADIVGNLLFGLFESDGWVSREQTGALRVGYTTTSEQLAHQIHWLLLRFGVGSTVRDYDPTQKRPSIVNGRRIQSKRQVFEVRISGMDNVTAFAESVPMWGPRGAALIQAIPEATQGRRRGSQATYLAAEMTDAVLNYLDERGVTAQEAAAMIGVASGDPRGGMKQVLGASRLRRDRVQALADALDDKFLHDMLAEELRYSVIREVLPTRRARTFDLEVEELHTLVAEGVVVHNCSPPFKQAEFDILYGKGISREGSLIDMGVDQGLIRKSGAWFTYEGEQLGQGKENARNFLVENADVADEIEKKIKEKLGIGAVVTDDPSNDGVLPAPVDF
Arbovirus inh: antivirals against arbovirus infection, primary screen, cell-based, full library, 10K replicate subset | arbovirus infection cell-based antiviral screen | AID 1251, 2008 | 200,000 tested, 0.37% active | inhibition, % at 10 µM;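 active means inhibition from about 30%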;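 further: bluetongue infection of BSR cells; cell survival read as ATP light after 72 h; 0% = infected wells without compound and 100% = uninfected wells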
Arbovirus inh repeat: recorded beside Arbovirus inh, whose call it bears; inhibition, %; measured here: 10K subset replicate screen; many hits read low in the repeat;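 first of two repeat runs on a subset; 0% = infected and 100% = uninfected wells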
Active calls of the source: *; u = inconclusive; x = no result given. This is a subset, so the mix of outcomes need not match the whole.

SMILES	Mtb H37Rv	YopH PTP inh	Mtb betalactam	RecA intein inh	Arbovirus inh	others
Cc1cc(S(=O)(=O)NC2CCN(Cc3ccccc3)CC2)c(C)cc1Cl	2%	x	-3	6.9	x
C[C@@H]1NC(=O)[C@H](CCCN=C(N)N)NC(=O)c2cc([N+](=O)[O-])cc(I)c2NCCC[C@@H](C(N)=O)NC1=O	0%	-9	-10	-0.5	7
CC(C)C1Cc2c(sc3ncnc(NN)c23)CO1 (centres undefined)	x	x	4	-1.1	x
COC(=O)CCCCC1SCC(NC(=O)c2ccccc2)C1OC(C)=O (centres undefined)	-2%	x	6	0.0	0
COc1ccc(CN(CCCN2CCOCC2)S(=O)(=O)N(C)C)cc1OC	-1%	-31	1	0.2	1
CC(C)(C)NC(=O)C1Cc2ccccc2CN1C(=O)Nc1cccc(Cl)c1 (centres undefined)	1%	-24	-15	0.3	-9
CC1CCN(CCCNC(=O)CCNC(=O)Cn2cnc3ccccc3c2=O)CC1	x	x	-2	1.8	x
CN1C(=O)/C(=C/c2ccccc2OCc2ccc(C(=O)O)cc2)NC1=S	2%	x	-7	3.2	0
COC(=O)CN(c1ccc(OC)cc1OC)S(=O)(=O)c1ccccc1[N+](=O)[O-]	-13%	x	1	-3.0	4
Cc1nnc(SCC(=O)Nc2ccc(S(=O)(=O)Nc3ccc(Cl)nn3)cc2)s1	x	x	-4	0.8	x
CCCOc1ccc(/C=C/c2[nH]c(=O)[nH]c(=O)c2[N+](=O)[O-])cc1OCC	-5%	x	-3	-1.2	x
Cc1cc(C(=O)NNC(=O)/C=C/c2ccccc2Cl)c(C)o1	x	x	3	-4.3	x
CC(C)c1ccc(/C=N/NC(=O)CC(=O)NCc2ccccc2)cc1	6%	x	-6	x	-4
CCN(Cc1ccncc1)C(=O)c1ccc(Br)o1	x	x	4	-0.1	x
Cc1[nH]c2ccccc2c1Cc1nnc(SCC(N)=O)o1	-2%	-23	u	-5.7	3	Arbovirus inh repeat=7
O=C(N/N=C/c1c(O)n(Cc2ccccc2)c(=O)[nH]c1=O)c1ccccc1	8%	-13	52	18	12
Clc1ccc(Cl)c2sc(N3CCOCC3)nc12	-3%	-50	u	1.5	x
COc1ccc(Cl)cc1C(=O)Nc1ccc(CN2CCCCC2)cc1	3%	x	-4	0.5	-24
O=C(OCC(=O)N1CCOCC1)c1ccccc1Cc1ccccc1	-5%	-15	-5	0.1	4
O=C(CNS(=O)(=O)c1ccccc1)N/N=C/c1ccc(O)cc1	-6%	x	-1	-0.7	-5
CC(C)C1=NN(C(=O)c2cccnc2)C(O)(C(F)(F)F)C1 (centres undefined)	-2%	-39	-1	-2.4	-4
FC(F)(F)c1ccc(CN2CCNCC2)cc1	9%	x	-9	0.8	3
Cc1ccc2cc([N+](=O)[O-])ccc2n1	1%	x	-2	2.9	x
Cc1cccc(C)c1NC(=S)NC(=O)c1ccc(Br)o1	-1%	x	2	-6.0	7
CCOC(=O)CSc1ncnc2c1cnn2-c1ccc(C)cc1	10µM*	19	99	-0.8	-4
N#C/C(=C/c1ccccc1)c1nn(CCO)c(N)c1C#N	-9%	-40	-1	3.9	-3
CCOC(=O)c1c(NC(=O)C(C)N2CCN(C(=O)c3ccco3)CC2)sc2c1CCCC2 (centres undefined)	x	-27	72	19	-35
CN(Cc1ccc(F)cc1)C(=O)c1cccc(S(=O)(=O)N2CCN(c3ccc(F)cc3)CC2)c1	x	x	-9	-0.1	x
Cn1c(N)c(C(=O)Nc2cccc(Cl)c2)c(=O)n(C)c1=O	x	x	-1	-4.8	x
O=C(/C=C/c1ccc([N+](=O)[O-])cc1)N1CCN(S(=O)(=O)c2cccs2)CC1	-5%	x	1	0.1	x
C=C1CCN([C@@H](CC(C)C)C(=O)NCc2cc(OC)c(OC)c(OC)c2)S(=O)(=O)c2ccccc21	-4%	x	-12	-3.9	x
COc1ccc(/C=N/NC(=S)Nc2ccccc2)cc1COc1ccc(F)cc1F	-1%	-2	4	-3.5	3
COc1ccc(-c2noc(CCCOc3ccccc3)n2)cc1OC	10%	-13	44	8.5	-12
COc1ccc2c(c1[N+](=O)[O-])CCC/C2=N/OC(=O)c1cccc2ccccc12	-6%	-40	-3	1.0	9
O=c1c2c(nc3c(-c4ccccc4)c[nH]n13)CCCC2	14%	6	99	-0.4	27	Arbovirus inh repeat=3
CC(C)=CCN1CCN(Cc2cnc(C)s2)CC1CCO (centres undefined)	-10%	x	-8	2.9	-2
O=C1N=c2ccccc2=C1c1sc(=S)n(Cc2ccccc2Cl)c1O	-2%	x	14	4.3	x
CN(CC(=O)O/N=C(\N)c1ccccn1)S(=O)(=O)c1ccccc1	0%	-37	-7	1.0	1
CCOC(=O)C1=C(C)Nc2nc(SCC)nn2C1c1ccc(OC)cc1 (centres undefined)	-9%	3	4	1.9	-5
COc1cc(C2=NOC(C(=O)Nc3c(C)n(C)n(-c4ccccc4)c3=O)C2)cc(OC)c1OC (centres undefined)	-13%	x	3	-0.4	x
COCC(C)N1CCC(Oc2ccc(C(=O)NCc3ccccn3)cc2)CC1 (centres undefined)	x	x	u	0.6	x
Cc1oc(-c2ccccc2Cl)nc1CSCC(=O)N1CCCC1	-4%	-34	12	-2.5	33*
CC1CCN(C(=O)CCC(=O)N2CC(C)Oc3ccccc32)CC1 (centres undefined)	x	x	-6	-2.0	x
O=C1N=C(N2CCc3ccccc3C2)S/C1=C\c1cccc(O)c1	-10%	-37	54	8.6	7
O=C(NC1CCCCCCC1)C1c2ccccc2C(=O)N1Cc1ccco1 (centres undefined)	4%	-93	-4	3.1	-1
COc1ccc(CN(C(=O)CSc2nnc(-c3ccc(OC)c(OC)c3)o2)c2ccc(F)cc2)cc1	-1%	-24	-16	-2.7	0
O=C(C1CCCC1)N1CCN(S(=O)(=O)c2ccc(F)c(F)c2F)CC1	x	x	3	-1.8	x
CCOC(=O)C(C(=O)OCC)C(C#N)c1ccccc1 (centres undefined)	14%	33	0	-0.4	0
COc1ccccc1C(=O)Nc1ccc2c(c1)OCCO2	-3%	-41	6	7.2	-4
COc1ccc([C@H]2/C=C\CN(S(C)(=O)=O)[C@@H](C)C(=O)N2Cc2ccc(F)cc2)cc1	3%	x	-8	-1.3	x
COc1ccc(C2=NN(C(=O)CCC(=O)O)C(c3ccc(F)cc3)C2)cc1 (centres undefined)	x	x	-2	0.3	x
COc1ccc(-c2csc3ncnc(Oc4ccc5c(C)cc(=O)oc5c4)c23)cc1	u	-17	99	3.0	-19
CC(=O)Nc1c(C(=O)Nc2ccc3c(c2)OCO3)oc2ccccc12	x	x	3	-6.3	x
CCN(CC)CCNC(=O)c1cn(CC)c2cc(N3CCN(C(=O)c4ccco4)CC3)c(F)cc2c1=O	5%	x	-6	-0.9	x
Cc1cccc2cc(CN(Cc3ccc(F)cc3)Cc3nnnn3C3CCCC3)c(=O)[nH]c12	-12%	-47	2	-6.1	1
O=C(/C=C/c1cccc([N+](=O)[O-])c1)NCCSCc1c(Cl)cccc1Cl	10%	-8	-1	0.1	0
O=S(=O)(Nc1ccc(-c2nc3cccnc3s2)cc1)c1cc(F)ccc1F	3%	x	-4	-6.4	x
Cc1ccc(C)c(S(=O)(=O)N2CCN(C(=O)c3ccc(OCc4c(C)noc4C)cc3)CC2)c1	x	x	-14	7.6	x
Cc1coc2c1c(C)cc1oc(=O)c(CC(=O)N[C@H](C(=O)O)C(C)C)c(C)c12	x	x	2	-0.7	x
CN1CCc2c(c3ccccc3n2C)C1	-9%	-14	-6	-0.5	1

Random excerpt: two records from the list
SMILES	Mtb H37Rv	YopH PTP inh	Mtb betalactam	RecA intein inh	Arbovirus inh	others
O=C(/C=C/c1cccc([N+](=O)[O-])c1)NCCSCc1c(Cl)cccc1Cl	10%	-8	-1	0.1	0
COc1ccc(-c2csc3ncnc(Oc4ccc5c(C)cc(=O)oc5c4)c23)cc1	u	-17	99	3.0	-19

New compounds follow.
SMILES	Mtb H37Rv	YopH PTP inh	Mtb betalactam	RecA intein inh	Arbovirus inh	others
COc1ccccc1NC(=O)CCC(=O)OCc1ccc(Br)cc1	-3%	x	-4	0.4	6
O=C(Nc1nnc(Cc2ccccc2)s1)c1cccs1	-3%	-31	-3	-1.8	-8
COc1ccc(C2=NN(C(=O)CCC(=O)O)C(c3ccccc3F)C2)cc1 (centres undefined)	x	x	-1	-2.9	x
CC(C)(C)c1ccc(Oc2cccc(C3CC(=O)C(C4NCCc5ccccc54)C(=O)C3n3cncn3)c2)cc1 (centres undefined)	-12%	-28	-1	8.2	15
Cc1ccc(C2C3CSCC=C3C(C#N)=C(N)C2(C#N)C#N)cc1 (centres undefined)	1%	-33	4	16	5
O=C(COC(=O)c1cncc(Br)c1)NC1CCCC1	-1%	x	4	2.4	3
CCOc1ccccc1C1c2[nH]c3ccccc3c2C[C@H]2C(=O)N(C3CCN(Cc4ccccc4)CC3)CC(=O)N12 (some centres undefined)	x	x	93	14	x
CC(NC(=O)COC(=O)c1cn(-c2ccccc2)nc1-c1cccs1)c1ccccc1 (centres undefined)	9%	1	24	-3.6	12
Cc1ccc(NC(=O)COC(=O)C2CC2)c(Br)c1	2%	-10	19	-0.1	-5
CCOC(=O)C1=C(C)Nc2ncnn2C1c1cccs1 (centres undefined)	2%	14	7	-3.6	14
O=C1c2cccnc2C(Nc2cccc(F)c2)N1Cc1ccco1 (centres undefined)	7%	x	-2	0.5	2
Cc1ccc(-c2cc(C(=O)N3CCN(C(=O)c4ccco4)CC3)no2)cc1	-2%	-26	-6	-0.9	-3
O=C(COc1ccc(Cl)cc1)NCCNC(=O)c1cnccn1	x	x	-3	1.1	x
Cc1nc(N2CCC(C)CC2)c2c(C)c(C(=O)Nc3cccc(C(F)(F)F)c3)sc2n1	5%	x	14	5.8	0
Cc1ccc(S(=O)(=O)N2CCOCC2)cc1C(=O)NC(=S)N1CC(C)CC(C)C1 (centres undefined)	-5%	x	-4	-0.5	x
CCn1c(SCC(=O)N2c3ccccc3Sc3ccccc32)nnc1-c1ccco1	5%	30	0	3.5	-4
COc1cc(Cl)c(C)cc1N1C(=O)CN(Cc2ccccc2)C1=S	x	x	-4	8.0	x
CCOc1ccc(C2CC(c3cccc(OC)c3OC)n3nnnc3N2)cc1Cl (centres undefined)	12%	-21	60	28	7
O=C(COC(=O)COc1ccc(Cl)cc1Br)NCc1cccs1	-3%	x	5	2.8	-3
Cn1nc(C(F)(F)F)c(/C=N/OC(=O)c2ccc(Cl)cc2)c1Cl	4%	-30	-2	-0.4	-3
CCN(CC(=O)Nc1ccccc1OC)C(=O)CCOc1ccc(C(C)(C)C)cc1	x	x	0	-0.9	x
CC(C)CC(=O)NC(=S)Nc1ccccc1C(F)(F)F	20%	-26	4	-1.3	6
Cc1cc(NC(=O)CCC(=O)N(Cc2cccs2)C(C(=O)NC2CCCC2)c2ccncc2)no1 (centres undefined)	8%	-24	-1	2.4	1
Cc1ccc(S(=O)(=O)NCc2ccccc2)s1	x	x	3	2.7	x
Cc1nnc(SCC(=O)NNC(=O)CC#N)[nH]c1=O	-3%	-47	93	-2.2	1
CCOc1ccc(OCC)c(NC(=O)c2ccc(CNc3c(N4CCOCC4)c(=O)c3=O)cc2)c1	0%	-36	25	-4.2	-11
COC(=O)c1ccc(/C=C(\C#N)c2ccccn2)cc1	-2%	x	83	8.1	-8
CCOc1ccccc1NC(=O)C(C)CC (centres undefined)	-1%	x	5	-3.9	-3
CCCNC(=O)c1onc(CSc2ccc(F)cc2)c1C(=O)NC(C)C	x	x	-4	0.2	x
Cc1nn(Cc2ccc(F)cc2)c(C)c1NC(=O)c1cc(-c2ccco2)on1	-5%	8	23	-2.0	0

Compounds above containing a tert-butyl group:
SMILES	Mtb H37Rv	YopH PTP inh	Mtb betalactam	RecA intein inh	Arbovirus inh	others
CC(C)(C)NC(=O)C1Cc2ccccc2CN1C(=O)Nc1cccc(Cl)c1 (centres undefined)	1%	-24	-15	0.3	-9
CC(C)(C)c1ccc(Oc2cccc(C3CC(=O)C(C4NCCc5ccccc54)C(=O)C3n3cncn3)c2)cc1 (centres undefined)	-12%	-28	-1	8.2	15
CCN(CC(=O)Nc1ccccc1OC)C(=O)CCOc1ccc(C(C)(C)C)cc1	x	x	0	-0.9	x

An excerpt from above in order of formula weight, low to high:
SMILES	Mtb H37Rv	YopH PTP inh	Mtb betalactam	RecA intein inh	Arbovirus inh	others
CCOc1ccccc1NC(=O)C(C)CC (centres undefined)	-1%	x	5	-3.9	-3
Cn1nc(C(F)(F)F)c(/C=N/OC(=O)c2ccc(Cl)cc2)c1Cl	4%	-30	-2	-0.4	-3
CCOc1ccc(OCC)c(NC(=O)c2ccc(CNc3c(N4CCOCC4)c(=O)c3=O)cc2)c1	0%	-36	25	-4.2	-11
